# High-throughput results from PubChem BioAssay.
# Vif TR-FRET: HIV-1 Vif–A3G interaction blockers – biochemical, TR-FRET, GST-Vif 1-94, biotin-A3G peptide, dose response retest, primary screen (AID 1117319) | TR-FRET GST-Vif / biotin-A3G peptide binding; higher % means a stronger effect; test concentration not given here; strong numbers were not always called active | inhibition, %, or IC50 in µM where a hit was titrated | actives 0.57% (n = 260,000);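 active = above the screen mean plus three standard deviations and confirmed in dose response; inconclusive = results disagree or hit not tested in dose response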;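 note: Vif residues 1-94 fused to GST binding biotinylated APOBEC3G peptide 110-148; 0% = full assay without inhibitor and 100% = GST in place of GST-Vif; retest series ran down from 100 µM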
# Beta apoptosis: blocks beta cell apoptosis; INS-1E cytokine-induced death, ATP luminescence, 48 h; percent of positive-control rescue, neutral wells zero; protection from apoptosis, % (test concentration not listed); actives 0.8% (n = 300,000); AID 435005;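 active = all replicates at 75% or more, or half of them and the mean; inconclusive = half reach 75% but not the mean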;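 note: 0% = cytokine-treated negative control wells and 100% = positive control rescue; higher means more ATP so stronger rescue from cytokine killing; wells of about 40 µL received 100 nL stock; the first replicate is given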
# LANA-H2A inh: blocks KSHV LANA binding to histone H2A/H2B | Q9QR71 | cell-free LANA-H2A/H2B peptide, fluorescence polarization | inhibition, % (test concentration not listed) | actives 0.6% (n = 320,000) | AID 2629; in the data active = inhibition mostly above about 10%, no sharp cut-off; inactive = mostly below about 6.7%;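 note: stock transfer was 7.5 nL into about 10 µL; 0% = median of vehicle wells and 100% = median of positive control wells; one replicate is shown; the record names a cut of 25% in any replicate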
# Target sequence (Q9QR71 whole entry, looked up): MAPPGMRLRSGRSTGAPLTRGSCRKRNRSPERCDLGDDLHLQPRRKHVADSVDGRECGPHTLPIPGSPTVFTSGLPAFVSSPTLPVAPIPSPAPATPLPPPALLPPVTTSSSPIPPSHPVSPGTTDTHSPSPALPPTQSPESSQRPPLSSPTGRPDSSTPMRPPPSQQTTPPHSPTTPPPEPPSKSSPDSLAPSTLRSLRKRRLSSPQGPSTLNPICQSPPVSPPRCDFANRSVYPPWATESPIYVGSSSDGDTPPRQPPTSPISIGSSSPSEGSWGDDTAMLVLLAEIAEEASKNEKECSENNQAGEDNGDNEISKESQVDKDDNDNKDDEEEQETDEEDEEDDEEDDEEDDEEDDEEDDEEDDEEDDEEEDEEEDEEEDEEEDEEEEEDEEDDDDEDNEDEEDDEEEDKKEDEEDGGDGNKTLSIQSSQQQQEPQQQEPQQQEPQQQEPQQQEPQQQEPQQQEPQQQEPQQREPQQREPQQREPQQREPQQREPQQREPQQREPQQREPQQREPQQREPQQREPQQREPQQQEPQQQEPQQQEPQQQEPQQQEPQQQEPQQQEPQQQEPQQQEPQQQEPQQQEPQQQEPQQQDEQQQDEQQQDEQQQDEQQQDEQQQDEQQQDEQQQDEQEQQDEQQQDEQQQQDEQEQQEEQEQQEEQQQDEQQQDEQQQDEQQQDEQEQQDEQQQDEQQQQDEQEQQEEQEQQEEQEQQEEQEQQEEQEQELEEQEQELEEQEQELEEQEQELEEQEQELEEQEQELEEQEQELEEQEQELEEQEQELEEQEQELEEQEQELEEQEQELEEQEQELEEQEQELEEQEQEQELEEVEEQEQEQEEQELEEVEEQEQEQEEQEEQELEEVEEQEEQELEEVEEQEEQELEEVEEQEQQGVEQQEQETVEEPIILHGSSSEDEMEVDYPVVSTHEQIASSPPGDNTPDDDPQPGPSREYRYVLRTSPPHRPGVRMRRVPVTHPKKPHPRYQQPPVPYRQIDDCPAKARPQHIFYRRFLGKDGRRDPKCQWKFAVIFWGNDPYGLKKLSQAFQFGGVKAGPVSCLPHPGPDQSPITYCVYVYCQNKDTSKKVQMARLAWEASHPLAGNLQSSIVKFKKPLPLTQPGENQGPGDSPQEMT
# RanGTP-Impb inh: inhibitors of RanGTP-importin-beta interaction, primary screen, biochemical, FRET, CFP-Ran, YFP-importin-beta, homogeneous; cell-free CFP-Ran/YFP-importin-beta FRET ratio; inhibition, % (test concentration not listed); actives 1.1% (n = 300,000); AID 2216;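 active = most replicates above 15%; inconclusive = exactly half above 15%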;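 note: 0% = DMSO wells and 100% = Ran loaded with GDP instead of GTP; wells of about 40 µL received 100 nL stock; the first replicate is given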
# T cruzi inh: T. cruzi replication inhibition; AID 1885; actives 1.4% (n = 300,000); inhibition, % (test concentration not listed); T. cruzi beta-gal in NIH3T3, luminescence, 90 h;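 active = mean inhibition across valid replicates above about 55%, limit read from the data; inconclusive = mean below that limit but half or more replicates reach it; inactive = mean below it, under half of replicates reach it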;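 note: signal also drops with host cell toxicity which is not excluded here; 0% = plate median of DMSO wells and 100% = zero luminescence signal; higher percent means less beta-gal luminescence so fewer parasites; stock transfer was 50 nL into about 50 µL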
# Bfl-1 A1 inh: inhibitors of the anti-apoptotic protein A1, read as caspase activation | MEF A1-2A-BIM cells, Caspase-Glo 3/7 luminescence, 3 h; percent of clofoctol response, vehicle zero | caspase activation, % (test concentration not listed) | actives 0.066% (n = 330,000) | AID 2462;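 active = over half of replicate activation scores above 10%, or exactly half above 10 with the replicate mean above 10; inconclusive = replicate mean below 10 yet half the replicates above 10; inactive = over half of replicates below 10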;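 note: wells of about 30 µL received 50 nL stock; many hits fall short of the cut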
# Calb FLC: affects C. albicans growth with fluconazole; C. albicans CaCi-2 (fluconazole-resistant clinical isolate) + fluconazole, Alamar Blue growth, 48 h; growth inhibition, % (no concentration beside the values); actives 0.57% (n = 300,000); AID 1979;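 active = most replicates above 75%; inconclusive = exactly half above 75%; inactive = most below 75%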;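 note: all wells also contain fluconazole at 8 µg/ml as a sub-toxic cotreatment; 0% = median of DMSO wells and 100% = median of geldanamycin control wells; wells of about 8 µL received 7.5 nL stock; the first replicate is given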
# AF4-AF9 inh: inhibitors of human MLL-AF4/AF9 interaction | P42568 | AlphaScreen, biotin-AF4 peptide binding to FLAG-AF9 | inhibition, % at 10 µM | actives 0.47% (n = 350,000) | AID 651704;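 active = every replicate reaching a set inhibition limit, whatever the replicate mean, cut at about 25% in these data; inconclusive = mean inhibition reaches that limit but some replicates miss it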;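 note: 0% = plate neutral control median and 100% = total signal loss; the record names both 10 and 1 µM as test concentration; the first replicate is given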
# * marks the source's active call; other numbers are inactive results; ? = inconclusive; nt = no result given.
SMILES,T cruzi inh,LANA-H2A inh,RanGTP-Impb inh,Calb FLC,AF4-AF9 inh,Vif TR-FRET,Bfl-1 A1 inh,Beta apoptosis
COC(=O)c1cc2ccsc2n1Cc1cccc(F)c1,-19,0.9,0.0,1,-21,-8%,1.2,-9
COc1ccc(-c2sccc2C(C)C(=O)O)cc1 (stereo not given),-2,-2.7,-3.8,19,nt,-2%,-0.1,-5
Cc1cccc(C(=O)NC(=S)NNC(=O)COc2c(C)cccc2C)c1,-9,-4.8,-3.3,49,nt,nt,0.6,-3
Cc1ccccc1OCC(=O)NC1CCCCCCC1,12,-2.0,-0.7,-7,-4.8,nt,0.5,0
Nc1nnc(SCC(=O)NC2CCCC2)s1,-17,2.2,1.0,20,-2.4,1%,2.4,-4
CCOc1c2ccc(C(=O)NCc3ccc(C(F)(F)F)cc3C(F)(F)F)cc2nn1C,17,-1.0,8.4,4,-2.1,-6%,-0.7,-11
COc1ccc(N2CCN(C(=O)c3ccc(NS(=O)(=O)c4cccs4)cc3)CC2)cc1,-14,-1.9,3.1,20,3.0,nt,0.5,nt
O=C(N/N=C/c1cccc(Oc2ccccc2)c1)c1ccccc1F,9,-2.2,-0.9,26,1.2,nt,0.1,-2
Cc1cccc(NC(=O)CSCC(=O)Nc2ccc(S(=O)(=O)N3CCCC3)cc2)c1,6,-0.4,4.2,-1,2.0,4%,0.8,4
CCn1nnc(C(=O)O)c1C(=O)O,-6,-1.9,0.4,-2,nt,-3%,0.6,-2
NS(=O)(=O)c1ccc(NC(=O)COC(=O)CCc2ccc(S(=O)(=O)N3CCOCC3)cc2)cc1,-10,-0.6,4.0,1,2.3,nt,0.0,-4
Oc1[nH]c(=S)sc1C=C1N=c2ccccc2=N1,-9,1.7,4.5,-1,1.5,-14%,-1.4,nt
N#Cc1c(NC(=O)CN2CCN(S(=O)(=O)c3ccc4c(c3)OCCO4)CC2)sc2c1CCC2,13,-0.7,1.9,-1,nt,2%,-0.5,9
O=S(=O)(NC1CCCCC1)c1ccc(-c2csnn2)s1,12,2.1,1.1,-1,nt,10%,-0.5,-2
Cc1cc(NC(=O)c2cc(-c3cccs3)nc3ccccc23)no1,-4,1.6,5.4,20,-11,-3%,0.0,9
O=C(Nc1ccnn1C1CCN(Cc2cccnc2)CC1)c1ccccc1Cl,-2,-1.1,1.6,-13,0.2,-2%,0.3,-2
CCN(CC)CCN(C(=O)c1c(F)cccc1F)c1nc2cc(C)cc(C)c2s1,11,11,5.1,3,13,6%,-0.4,1
NC(=S)N/N=C/c1c(O)ccc2ccccc12,-2,-4.0,6.4,-11,nt,nt,0.0,71
O=C(N/N=C\c1ccco1)c1cncc(Br)c1,-18,-5.4,0.5,1,-4.9,nt,-0.3,-6
O=C(CSc1nc2c(cnn2-c2cccc(Cl)c2)c(=O)[nH]1)NCC1CCCO1 (stereo not given),nt,1.8,nt,nt,-2.0,4%,-0.5,-5
COc1ccc(NC(=O)CN2CCN(c3nc(-c4cccc(OC)c4)cs3)CC2)cc1,6,1.5,-0.8,32,nt,2%,0.0,0
COc1ccc(S(=O)(=O)n2c(CCN3CCOCC3)nc3ccccc32)cc1,6,1.2,3.0,4,nt,-4%,1.2,-9
Nc1nccc(-c2ccc(-n3cnc4ccccc43)cc2)n1,-14,-1.1,0.9,2,-0.8,-3%,-2.6,-11
COc1ccc(OC)c(S(=O)(=O)Nc2cccc(-c3ccc4nncn4n3)c2)c1,0,0.3,-0.9,-16,-0.4,-1%,-0.4,6
CC(=O)Nc1ccc(S(=O)(=O)N(C)CC(=O)NCCOc2ccccc2)cc1,nt,2.6,nt,nt,3.4,nt,0.4,5
COc1cc2c(cc1OC)/C(=C/C(=O)N1CCOCC1)NC(C)(C)C2,13,-7.9,-1.1,5,nt,30%,1.1,-3
O=C(CCCOc1ccc(Cl)cc1Cl)NCCc1ccccn1,4,3.4,0.9,-11,-6.2,nt,-0.2,-14
CCN(C(=O)CSc1nnc2c3ccccc3n(CC)c2n1)C1CCS(=O)(=O)C1 (stereo not given),1,-0.4,-2.1,4,nt,8%,0.6,6
Cc1ccc(NC(=O)c2ccc(S(=O)(=O)N3CCCC3)cc2)nc1,-10,-2.5,0.4,-1,-6.9,-6%,1.4,-8
CC(=O)c1ccc(-c2nnc(CCC(=O)N(C)Cc3c(C)nc4ccccn34)o2)s1,10,2.6,11,-27,3.0,70%,-0.4,6
Cc1ccc(NC(=O)NC2C(NC(=O)Nc3ccc(C)cc3)N(C)C(=O)N2C)cc1 (stereo not given),-4,0.5,-0.1,-7,nt,2%,0.2,-2
CCCCOC(=O)n1c(=O)oc2cc(S(=O)(=O)N3CCCCC3)ccc21,-13,13,2.3,0,nt,3%,0.3,19
CCOc1ccc2c(c1)C(c1ccc(C)cc1)=NNC(c1ccc(C)cc1)=N2,4,6.2,0.7,-11,nt,5%,-0.3,6
CCOC(=O)c1ccc(NC(=O)NCc2c(C)nn(CC)c2C)cc1,4,nt,?,-9,0.1,26%,0.6,3
CCCc1cc(=O)oc2cc(C)cc(OCC(=O)NCC(O)c3ccccc3)c12 (stereo not given),-1,-2.1,-1.7,4,0.6,-8%,1.7,2
Cc1ccc(S(=O)(=O)N2CCC(=O)N(C(COCc3cccc(C(F)(F)F)c3)Cc3ccccc3)CC2)cc1 (stereo not given),40,2.6,1.7,2,-24,15%,-1.0,30
COc1cc(NC(=O)c2cccc(F)c2)ccc1NC(=O)c1cc2ccccc2o1,-9,1.3,-2.7,-6,-4.3,6%,2.2,3
COc1cc(OC)c(NS(=O)(=O)c2coc(C(N)=O)c2)cc1Cl,0,0.6,2.6,24,-1.0,3%,-0.8,-17
CN(C)CC(C)(C)CNS(=O)(=O)CC12CCC(CC1=O)C2(C)C (stereo not given),-7,5.0,-0.7,-9,nt,-4%,0.7,-7
CCN(C(=O)COC(=O)CNC(=O)c1ccc(C)cc1)c1c(N)n(Cc2ccccc2)c(=O)[nH]c1=O,nt,-27,nt,nt,-0.8,3%,1.1,-10

# Some of these compounds in order of heavy-atom count, smallest number first:
SMILES,T cruzi inh,LANA-H2A inh,RanGTP-Impb inh,Calb FLC,AF4-AF9 inh,Vif TR-FRET,Bfl-1 A1 inh,Beta apoptosis
CN(C)CC(C)(C)CNS(=O)(=O)CC12CCC(CC1=O)C2(C)C (stereo not given),-7,5.0,-0.7,-9,nt,-4%,0.7,-7
CCOc1ccc2c(c1)C(c1ccc(C)cc1)=NNC(c1ccc(C)cc1)=N2,4,6.2,0.7,-11,nt,5%,-0.3,6
Cc1ccc(S(=O)(=O)N2CCC(=O)N(C(COCc3cccc(C(F)(F)F)c3)Cc3ccccc3)CC2)cc1 (stereo not given),40,2.6,1.7,2,-24,15%,-1.0,30

# Continued:
SMILES,T cruzi inh,LANA-H2A inh,RanGTP-Impb inh,Calb FLC,AF4-AF9 inh,Vif TR-FRET,Bfl-1 A1 inh,Beta apoptosis
Cc1csc(SCC(=O)NC(=O)NC(C)(C)C)n1,-6,2.3,2.4,-1,0.0,-2%,-0.4,-7
O=C(NCc1ccco1)c1ccccc1Br,-3,-1.2,-1.3,-2,nt,-3%,-0.2,1
Cc1c(Cl)cccc1NC(=O)COC(=O)Cc1ccsc1,nt,-0.3,nt,nt,1.7,-5%,-0.7,2
COCCN1CCN(C(=O)C2CCC(=O)N(CCCc3ccccc3)C2)CC1 (stereo not given),-9,1.3,0.0,6,-0.2,1%,-0.5,-3
O=S(=O)(Nc1cccc(-n2cnnn2)c1)c1ccccc1F,-2,2.9,-1.7,25,2.4,-7%,0.6,-4
O=C(Cn1c(NCCCO)nc2ccccc21)c1ccc(F)cc1,-2,-3.4,5.7,1,2.6,11%,2.0,-1
CC(Oc1cccc(Cl)c1)C(=O)Nc1ccc(S(=O)(=O)NC2=NCCCCC2)cc1 (stereo not given),11,-3.5,2.2,nt,1.3,16%,0.2,0
CC(C)c1ccc(S(=O)(=O)c2cn(Cc3ccc(F)cc3)c3cc4c(cc3c2=O)OCO4)cc1,19,1.8,1.5,-3,nt,29%,-0.3,-7
O=C(CCCCn1c(=O)[nH]c2ccsc2c1=O)NCC1CCCO1 (stereo not given),-6,3.0,-0.5,6,nt,2%,0.2,-3
CCCn1nc(Oc2nc(N(C)C)nc(N(C)C)n2)ccc1=O,6,0.6,?,18,-0.7,10%,0.0,-4
Cc1noc(C)c1C(=O)NC(C)C1CCCO1 (stereo not given),-13,1.4,4.2,-11,nt,1%,0.7,0

# 15 entries from above, ordered by heavy-atom count, lowest first:
SMILES,T cruzi inh,LANA-H2A inh,RanGTP-Impb inh,Calb FLC,AF4-AF9 inh,Vif TR-FRET,Bfl-1 A1 inh,Beta apoptosis
NC(=S)N/N=C/c1c(O)ccc2ccccc12,-2,-4.0,6.4,-11,nt,nt,0.0,71
Cc1csc(SCC(=O)NC(=O)NC(C)(C)C)n1,-6,2.3,2.4,-1,0.0,-2%,-0.4,-7
Cc1ccccc1OCC(=O)NC1CCCCCCC1,12,-2.0,-0.7,-7,-4.8,nt,0.5,0
Cc1c(Cl)cccc1NC(=O)COC(=O)Cc1ccsc1,nt,-0.3,nt,nt,1.7,-5%,-0.7,2
CCCn1nc(Oc2nc(N(C)C)nc(N(C)C)n2)ccc1=O,6,0.6,?,18,-0.7,10%,0.0,-4
Cc1ccc(NC(=O)c2ccc(S(=O)(=O)N3CCCC3)cc2)nc1,-10,-2.5,0.4,-1,-6.9,-6%,1.4,-8
O=C(N/N=C/c1cccc(Oc2ccccc2)c1)c1ccccc1F,9,-2.2,-0.9,26,1.2,nt,0.1,-2
COc1ccc(S(=O)(=O)n2c(CCN3CCOCC3)nc3ccccc32)cc1,6,1.2,3.0,4,nt,-4%,1.2,-9
CCCc1cc(=O)oc2cc(C)cc(OCC(=O)NCC(O)c3ccccc3)c12 (stereo not given),-1,-2.1,-1.7,4,0.6,-8%,1.7,2
Cc1cccc(NC(=O)CSCC(=O)Nc2ccc(S(=O)(=O)N3CCCC3)cc2)c1,6,-0.4,4.2,-1,2.0,4%,0.8,4
COc1ccc(NC(=O)CN2CCN(c3nc(-c4cccc(OC)c4)cs3)CC2)cc1,6,1.5,-0.8,32,nt,2%,0.0,0
N#Cc1c(NC(=O)CN2CCN(S(=O)(=O)c3ccc4c(c3)OCCO4)CC2)sc2c1CCC2,13,-0.7,1.9,-1,nt,2%,-0.5,9
CC(C)c1ccc(S(=O)(=O)c2cn(Cc3ccc(F)cc3)c3cc4c(cc3c2=O)OCO4)cc1,19,1.8,1.5,-3,nt,29%,-0.3,-7
CCN(C(=O)COC(=O)CNC(=O)c1ccc(C)cc1)c1c(N)n(Cc2ccccc2)c(=O)[nH]c1=O,nt,-27,nt,nt,-0.8,3%,1.1,-10
Cc1ccc(S(=O)(=O)N2CCC(=O)N(C(COCc3cccc(C(F)(F)F)c3)Cc3ccccc3)CC2)cc1 (stereo not given),40,2.6,1.7,2,-24,15%,-1.0,30
